Choline anaer gr – choline-fed anaerobic bacterial growth inhibition; Gram-negative bacterium anaerobic choline minimal medium, absorbance growth; active compounds read low; many inactives read as strong as hits in the columns shown; calls only; hit rate 0.2% among 55,000; AID 1963822;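 active = growth z-score on choline under -2 at 7 or 20 h with little or no fall on glycerol, limits in tiers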;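 also: stock transfer was 300 nL into about 50 µL; the organism is E. coli; final concentration not given here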
Choline anaer gr early – recorded beside Choline anaer gr, whose call it bears; z-score; measured here: choline growth z-score, timepoint 1;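 score of optical density at 7 h as mean of two plates; lower means less growth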
An asterisk follows results filed as active; i = inactive; & = joins results of further samples. An excerpt. The share of hits here may be higher or lower than overall.

Values in the order – Choline anaer gr, Choline anaer gr early
> O=C(CN1CCN(c2ccc(NC(=O)C3CCC3)c(C(=O)O)c2)CC1)Nc1ccc(F)cc1
  i, -0.46
> CCOC(=O)c1c(C)[nH]c(C)c1S(=O)(=O)N1CCC(C(=O)Nc2cccc(Br)c2)CC1
  i, 0.14
> O=C1c2ccncc2C(=O)N1Cc1cccc(Cl)c1
  i, -0.72
> Cn1cc(-c2nc(-c3ccc4c(c3)OCO4)no2)c(=O)c2cc(F)c(N3CCCCC3)cc21
  i, -1
> CCn1c(CCc2cccc(NS(=O)(=O)c3ccc4c(c3)OCCO4)c2)nc2ccccc21
  i, 0.95
> O=C(CCCn1c(=O)c2cccn2c2ccc(Br)cc21)N1CCOCC1
  i, -1.2
> O=C(Nc1cccc(Br)c1)Nc1c(-c2ccccc2)[nH]c2ccccc12
  i, 0.61
> Cc1ccc(Nc2nnc(C)c(=O)[nH]2)cc1
  i, -1.2
> CCOC(=O)CC1=CC(=O)N(Cc2ccc(F)cc2Cl)c2ccccc2N1
  i, 0.75
> O=C(C1=CN(c2ccc3c(c2)OCCO3)c2cc(Cl)ccc2S1(=O)=O)N1CCCC1
  i, -0.7

Four entries drawn at random from those above:
Values in the order – Choline anaer gr, Choline anaer gr early
> Cn1cc(-c2nc(-c3ccc4c(c3)OCO4)no2)c(=O)c2cc(F)c(N3CCCCC3)cc21
  i, -1
> O=C(CN1CCN(c2ccc(NC(=O)C3CCC3)c(C(=O)O)c2)CC1)Nc1ccc(F)cc1
  i, -0.46
> O=C(Nc1cccc(Br)c1)Nc1c(-c2ccccc2)[nH]c2ccccc12
  i, 0.61
> O=C(C1=CN(c2ccc3c(c2)OCCO3)c2cc(Cl)ccc2S1(=O)=O)N1CCCC1
  i, -0.7

(list continues)
Values in the order – Choline anaer gr, Choline anaer gr early
> NC1[C@H]2CN(c3nc4c(cc3F)c(=O)c(C(=O)O)cn4-c3ccc(F)cc3F)C[C@@H]12 (some centres not stated)
  i, -3.1
> Cn1c(=O)c(C(=O)Nc2cccnc2)nn(-c2ccc(Cl)cc2)c1=O
  i, -0.31
> CN(C)CCNC(=O)c1ccc2c(c1)N(Cc1c(F)cccc1Cl)C(=O)c1ccccc1S2
  i, 0.24
> O=S(=O)(c1ccc(Cl)s1)N1CCc2nc[nH]c2C1
  i, -1.6
> CCOC(=O)c1c(C)oc2ncnc(Nc3cccc(Cl)c3)c12
  i, 0.28
> Cc1nc(-c2ccc(C(=O)N3CCN(c4ccc(Cl)cc4)CC3)cc2)no1
  i, -0.38
> Cc1ccc(Cl)cc1NC(=O)C1Oc2ccccc2NC1=O (configuration not stated)
  i, 0.37
> Cc1cc(C)nc(-n2nc(C)c3c2NC(=O)CC3c2ccccc2C)n1 (configuration not stated)
  i, -1.9
> COc1ccc(CCNC(=O)c2ccc(Cn3c(=O)c(=O)[nH]c4cccnc43)cc2)cc1OC
  i, -0.06
> CCCCOc1ccc(NC(=O)c2oc3cc(C)ccc3c2C)c2cccnc12
  i, 0.86

More records:
Values in the order – Choline anaer gr, Choline anaer gr early
> Cc1ccc(N2CCn3c2nc2c3c(=O)n(CC(=O)O)c(=O)n2C)cc1
  i, 0.19
> COc1ccc(-c2cc(C(=O)Nc3cccc(C)c3C)nn2C2CCS(=O)(=O)C2)cc1 (configuration not stated)
  i, 0.17
> Cn1cnc(S(=O)(=O)N2CCC(c3nnc(C(=O)Nc4ccc(F)cc4F)s3)CC2)c1
  i, -0.12
> Cc1sc(-c2cc(C(F)(F)F)on2)cc1S(=O)(=O)N1CCCCC1
  i, 0.46
> Cc1ccc2[nH]c3c(=O)n(CCC(=O)N4CCN(c5ccccn5)CC4)cnc3c2c1
  i, 0.86
> CCOc1ccc(S(=O)(=O)[C@H]2CS(=O)(=O)C[C@@H]2NC(C)C)cc1
  i, 0.37
> CCn1nc(C)c2c1c(=O)n(Cc1ccccc1)c(=O)n2Cc1cccc(Cl)c1
  i, -1.2
> Cc1cc(C)nc(SCCn2c(N3CCCCC3)nc3c2c(=O)n(C)c(=O)n3C)n1
  i, 0.73
> COCCN1Cc2cccc(C(=O)N3CCN(c4cccc(OC)c4)CC3)c2C1=O
  i, -1
> CCOC(=O)C1CCN(C(=O)CCc2c(C)nc3c(-c4ccc(F)cc4)c(C)nn3c2C)CC1
  i, -0.52

(next part)
Values in the order – Choline anaer gr, Choline anaer gr early
> Cc1ccc(C)c(C(=O)N2CCN(c3nc4cccnc4o3)CC2)c1
  i, -0.18
> COc1ccc(N2CCN(c3ccc(NS(=O)(=O)c4ccc(F)cc4)c(C(=O)O)c3)CC2)cc1
  i, 0.05
> COc1ccc(N2CCN(C(=O)CCS(=O)(=O)c3ccc4nc(C)sc4c3)CC2)cc1
  i, -2.3
> Cn1cnc2cc(-c3noc(CNC(=O)c4ccccc4)n3)ccc21
  i, -0.58
> Cc1ccc2c(c1)sc1nc(C)c(S(=O)(=O)Nc3cc(F)ccc3C)c(=O)n12
  i, -0.78
> CCOC(=O)c1cnn(-c2ccc(C(=O)N3CCN(c4ccc(Cl)cc4)CC3)cc2)c1N
  i, 0.65
> CCOc1ccc(CC(=O)N2CCCC(c3nc(-c4ccc(NC(C)=O)cc4)no3)C2)cc1OCC (configuration not stated)
  i, -1.3
> COc1ccc(N2CCN(C(=O)C3CCN(Cc4nc(-c5ccc(Cl)cc5)oc4C)CC3)CC2)cc1
  i, -0.19
> CO/N=C(\C(=O)N[C@@H]1C(=O)N2C(C(=O)O)=C(COC(C)=O)CS[C@H]12)c1csc(N)n1
  i, -2.2
> CCCn1c(=O)oc2cc(NC(=O)c3c(-c4ccccc4Cl)noc3C)ccc21
  i, -1.8

The list continues:
Values in the order – Choline anaer gr, Choline anaer gr early
> CCOC(=O)c1cnn(-c2ccc(C(=O)NCC3CCCO3)cc2)c1N (configuration not stated)
  i, 0.53
> Cc1ccc(C)c(N2CCN(c3ncc(NC(=O)c4ccc(Cl)cc4)cc3C(=O)O)CC2)c1
  i, -0.45
> CN1CCCN(C(=O)c2cccc(-c3ccc(C=C4C(=O)Nc5ccc(Cl)cc54)o3)c2)CC1
  i, -2.4
> O=C(COc1ccccc1)Nc1cccc(OCc2cc(=O)n3ccccc3n2)c1
  i, 1.4
> CCOc1ccc(C(=O)NCCc2csc3nc(-c4ccccc4C)nn23)cc1OCC
  i, 0.96
> Cc1ccc(OCc2nc(C)c(C(=O)Nc3nnc(C4CC4)s3)s2)cc1C
  i, -0.03
> O=C(CN1C(=O)COc2ccccc21)N1CCSCC1
  i, 1.1
> Cc1ccccc1C(=O)Nc1cc(F)c2nc(N3CCCC3)ccc2c1
  i, -0.78
> CCn1nnc2c(N3CCc4ccccc43)ncnc21
  i, -0.5
> COc1ccccc1CNC(=O)CCc1nc(CS(=O)(=O)c2ccccc2)no1
  i, -0.57

The listing continues:
canonical_smiles | Choline anaer gr | Choline anaer gr early
Cn1nc(COCc2ccc(F)cc2Cl)c2c1CCN(S(=O)(=O)c1ccc(F)cc1F)C2 | i | 0.06
COc1ccc2c(c1)c1nnc(-c3ccc(C)cc3)c-1cn2Cc1ccccc1 | i | 0.43
COc1cc2c(cc1OC)CN(C(=O)c1ccc(N3C(=O)C(C)CS3(=O)=O)cc1)CC2 (configuration not stated) | i | -0.31
COCCN1CCN(C2CCN(C(=O)Nc3ccc(C)cc3)CC2)C(=O)C1=O | i | -0.19
OCC1OC(O[C@]2(CCl)OC(CCl)C(O)C2O)C(O)C(O)C1Cl (some centres not stated) | i | 0.26
COc1ccc(-c2cnc(N3CC(O)=C(c4nc5ccccc5s4)C3=N)n2C)cc1 | i | 0.45
CCn1c(CN2CCN(S(C)(=O)=O)CC2)nc2cc(NC(=O)C3CCCCC3)ccc21 | i | 0.24
Cc1ccc(C(=O)N2CCN(c3ccc(F)cc3)CC2)cc1-n1nnc2cccnc21 | i | 0.36
CC1CCN(C(=O)Cn2c(=O)n(Cc3ccccc3)c(=O)c3c4c(sc32)CCC4)CC1 | i | 1.4
COc1ccc(Cl)cc1NC(=O)C1CCCN(c2nc3cccnc3s2)C1 (configuration not stated) | i | -0.42
Cc1ccc(C)c(Cn2c(=O)c(=O)n(Cc3ccc(C(=O)N4CCOCC4)cc3)c3ncccc32)c1 | i | 0.42
O=S(c1ccccc1)c1ccc2nnnn2n1 (configuration not stated) | i | -3.6

Molecules above that have a thiophene ring, fused or not, in the order listed:
canonical_smiles | Choline anaer gr | Choline anaer gr early
O=S(=O)(c1ccc(Cl)s1)N1CCc2nc[nH]c2C1 | i | -1.6
Cc1sc(-c2cc(C(F)(F)F)on2)cc1S(=O)(=O)N1CCCCC1 | i | 0.46
CC1CCN(C(=O)Cn2c(=O)n(Cc3ccccc3)c(=O)c3c4c(sc32)CCC4)CC1 | i | 1.4

Next results:
canonical_smiles | Choline anaer gr | Choline anaer gr early
Cc1cc(=O)[nH]c(N2CCC(C(N)=O)(N3CCCCC3)CC2)n1 | i | 0.05
CC(=O)N1CCOc2ccc(S(=O)(=O)N3CCN(c4ccccn4)CC3)cc21 | i | 0.17
O=c1c2ccccc2n2c(SCc3cccc(F)c3)nnc2n1Cc1ccccc1 | i | -0.63
Cc1cc(C)cc(-n2ncc3c(N4CCCC4)ncnc32)c1 | i | -1.6
CCN1CCc2c(sc(NC(=O)c3ccc(Cl)cc3)c2-c2nc3ccccc3s2)C1 | i | -0.36
CCN1c2ccccc2C(=O)NC12CCN(C(=O)Nc1ccc3c(c1)OCCO3)CC2 | i | 0.15
Cn1c(=O)cc(NCc2ccccc2)[nH]c1=O | i | -1.3
Cc1nc2sc3c(c2c2nnc(SCC(=O)c4ccccc4)n12)CCCC3 | i | -0.37
Cc1oc(-c2ccc(C(=O)N3CCN(c4ccccn4)CC3)cc2)nc1CN1CCc2ccccc21 | i | -0.06
CCC(=O)Nc1ccc(OC)c(CN2CCn3c(nc4ccccc43)C2)c1 | i | 0.53
CCOc1ccc(NC(=O)NCc2nnc(C(=O)Nc3ccccc3)s2)cc1 | i | 0.28
CCCCn1cc(C2CC(=O)N(c3ccc(Br)cc3)C2=O)c2ccccc21 (configuration not stated) | i | 1.2

Next section
canonical_smiles | Choline anaer gr | Choline anaer gr early
COc1ccc(-c2cc(N3CCN(C(=O)Nc4cc(C)cc(C)c4)CC3)ncn2)cc1 | i | 1.5
CCOc1cc(C2CC(=O)Nc3c2c(=O)n(C)c(=O)n3C)ccc1O (configuration not stated) | i | -0.15
CCn1cnc(S(=O)(=O)N2CCCC(C(=O)Nc3cc(C)on3)C2)c1 (configuration not stated) | i | -0.6
CCCCCCCCCCCC1=C(O)C(=O)C=C(O)C1=O | i | 0.68&0.67
N#CC1=CN(c2ccc(Cl)cc2Cl)c2ccc(F)cc2S1(=O)=O | i | 0.55
COc1ccc(OC)c(NC(=O)CSc2nc3ccccc3c(=O)[nH]2)c1 | i | -0.45
Cc1nn2c(S(=O)(=O)NC3CCCCCC3)c(C)nc2s1 | i | -0.07
CCN(C(=O)C1CCCN(S(=O)(=O)c2c(C)noc2/C=C/c2ccc(C)cc2)C1)c1ccccc1 (configuration not stated) | i | 0.61
Cc1noc(C)c1S(=O)(=O)N(C)c1ccc(Br)cc1 | i | 1.2
CCOC(=O)c1sc2nc(-c3cccc(OC)c3)c(NC3CCCCC3)n2c1C | i | 0.57
NS(=O)(=O)c1ccc2nc(NC(=O)CSc3ccccc3)sc2c1 | i | 0.51
Cc1cccc(C(=O)Nc2c3c(nn2C(C)(C)C)CS(=O)(=O)C3)c1 | i | 1.1

Remaining list, next part:
canonical_smiles | Choline anaer gr | Choline anaer gr early
CCN(CC)c1ncnc2c1cnn2-c1cc(C)cc(C)c1 | i | -1.1
CCCn1nnc(NCc2ccc(-c3ccc(Cl)cc3)o2)n1 | i | -1.6
CC1CCN(CCNC(=O)c2nc(-c3ccc(S(=O)(=O)N4CCC(C)CC4)cc3)no2)CC1 | i | -0.35
Cc1cc(C)cc(C(=O)Nc2cc(C)nn2-c2nc(C)cc(=O)[nH]2)c1 | i | 0.65
CCC1Oc2cc(S(=O)(=O)N3CCCC(C(=O)NC4CC4)C3)c(C)cc2NC1=O (configuration not stated) | i | -0.13
COc1cc(OC)cc(-c2noc(CSc3ccc(-c4ccccc4)nn3)n2)c1 | i | 1.8
O=C(NC1CC1)c1cc(N2CCCC2)n2nccc2n1 | i | 0.54
O=C(C1CCN(c2nc(-c3ccc(Cl)cc3)no2)CC1)N1CCOCC1 | i | -0.69
Cc1sc2ncn3c(SCC(=O)Nc4ccc5c(c4)OCCO5)nnc3c2c1C | i | -0.28
Cc1ccc(C)c(C(=O)Cn2nc3n(CC(C)C)c(=O)c4ccc(C(=O)NC5CCCC5)cc4n3c2=O)c1 | i | 0.45
COc1ccc(NC(=O)C2CCCN2S(=O)(=O)c2ccc(F)cc2)cc1 (configuration not stated) | i | -0.65
CC(=O)Nc1cnc(N2CCNCC2)c(C(=O)N(CC(C)C)CC(C)C)c1 | i | -0.18

Following part
canonical_smiles | Choline anaer gr | Choline anaer gr early
O=S(=O)(c1cc(-c2nnc(-c3ccccc3)o2)ccc1F)N1CCN(c2ccc(F)cc2)CC1 | i | -0.29
Cc1ccc(CCNC(=O)C2CCCN2S(=O)(=O)c2ccc3c(c2)C(C)(C)C(=O)N3C)cc1 (configuration not stated) | i | -1.8
CCOC(=O)c1c(S(=O)(=O)N2CCCC(C(=O)NCc3cccnc3)C2)c(C)n(CC)c1C (configuration not stated) | i | 0.16
Cc1cc(=O)[nH]c(-n2nc(C)cc2NC(=O)C(C)(C)Oc2ccc(Cl)cc2)n1 | i | 2.2
CC(C)c1nc2c(c(=O)[nH]1)CCN(Cc1ccccc1)C2 | i | 0.77
Cc1cc(C)cc(NC(=O)COc2cccc3c(=O)n(C)ccc23)c1 | i | 0.72
COc1ccccc1-c1nnc(C2CCN(C(=O)c3ccc(Cl)cc3)CC2)o1 | i | 0.51
CCN1CCN(c2ncc3c(n2)CC(C)CC3=O)CC1 (configuration not stated) | i | -0.32
Cc1ccc(-c2nn3c(=O)cc(N4CCN(C(=O)C5CCCCC5)CC4)nc3s2)cc1 | i | 1.3
CCOC(=O)C1CCN(c2c(NCCCN3CCC(C)CC3)c(=O)c2=O)CC1 | i | 0.57
COc1ccccc1NC(=O)Nc1ccc2nc3n(c(=O)c2c1)CCC3 | i | -0.02
